Ecoli rRNA inh: inhibitors of bacterial rRNA selective over humanized ribosomes | 350,000 compounds, 1.6% hits | AID 720706 | GFP signal change (wild-type ribosome), % (test concentration not listed) | E. coli WT GFP vs humanized-ribosome RFP mutants, fluorescence, 24 h; stronger effect = lower value; DMSO median 0, no signal -100;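 active = significant combined selectivity score with lowered wild-type GFP, culture density cut under 30%, mutant RFP and density less affected; inactive = any of these conditions unmet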; also: one replicate is shown; some compounds called inactive have numbers as strong as hits
MLL AF4-AF9 inh: inhibitors of human MLL-AF4/AF9 interaction. P42568. AlphaScreen, biotin-AF4 peptide binding to FLAG-AF9. AID 651704. inhibition, % at 10 µM. 350,000 compounds, 0.47% hits;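 active = every replicate reaching a set inhibition limit, whatever the replicate mean, cut at about 25% in these data; inconclusive = mean inhibition reaches that limit but some replicates miss it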;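 also: 0% = plate neutral control median and 100% = total signal loss; the record names both 10 and 1 µM as test concentration; the first replicate is given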
Target sequence (P42568 whole entry, looked up): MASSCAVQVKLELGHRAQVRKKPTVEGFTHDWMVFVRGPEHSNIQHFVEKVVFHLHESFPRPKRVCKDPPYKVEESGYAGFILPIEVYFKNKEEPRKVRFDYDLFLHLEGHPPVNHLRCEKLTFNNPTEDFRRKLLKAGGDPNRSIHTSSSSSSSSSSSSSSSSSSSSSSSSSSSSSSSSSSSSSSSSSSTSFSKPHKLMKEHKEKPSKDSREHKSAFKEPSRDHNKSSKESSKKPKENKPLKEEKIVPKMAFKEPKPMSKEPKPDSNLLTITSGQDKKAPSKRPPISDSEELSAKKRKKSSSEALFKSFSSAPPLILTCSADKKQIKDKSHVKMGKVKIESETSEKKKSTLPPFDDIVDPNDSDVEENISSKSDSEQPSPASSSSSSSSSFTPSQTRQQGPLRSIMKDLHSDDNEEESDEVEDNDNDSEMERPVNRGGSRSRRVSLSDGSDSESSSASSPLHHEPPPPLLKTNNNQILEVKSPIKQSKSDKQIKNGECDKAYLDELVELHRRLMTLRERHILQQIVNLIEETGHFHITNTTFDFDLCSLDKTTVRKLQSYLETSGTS
Ecoli growth: blocks Escherichia coli growth; OD600, 23 h; stronger effect = lower value; OD600 absorbance (test concentration not listed); 330,000 compounds, 0.21% hits;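 active = OD600 absorbance below the run mean of sample wells minus 3.6 SD, in any replicate, cut at about 0.56 in these data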;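 also: stock transfer was 300 nL into about 60 µL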
FGF22 binding: FGF22 (human) thermal shift binding; 340,000 compounds, 1.5% hits; Q9HCT0; AID 651658; calls only at 9.99 µM; recombinant FGF22 thermal shift, SYPRO orange fluorescence; percent of sucrose octasulfate shift, DMSO zero;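 active = melting point raised past a set limit in the mean and every replicate; inconclusive = no clear call; three in four hits are not shown here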
Target sequence (Q9HCT0 whole entry, looked up): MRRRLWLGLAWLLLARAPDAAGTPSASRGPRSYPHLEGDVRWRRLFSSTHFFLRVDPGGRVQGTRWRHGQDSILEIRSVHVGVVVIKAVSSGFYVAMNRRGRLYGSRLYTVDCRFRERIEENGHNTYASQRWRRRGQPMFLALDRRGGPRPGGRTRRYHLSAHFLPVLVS
HNF4A DNA FP: change in binding of human HNF4 alpha to DNA; AID 1224865; 360,000 compounds, 0.3% hits; P41235; HNF4a-FITC DNA binding, fluorescence polarization, 1 h; activity change, % at 10 µM; in the data active = activity change above about 30%, passing the limit was not always enough;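 also: controls were the assay level and a saturating level of protein; the project sought stronger binding though the title names inhibitors; some compounds called inactive have numbers as strong as hits; positive values seem to mean higher polarization but the record does not say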
ALR H2O2 inh: inhibitors of human sulfhydryl oxidase ALR. P55789. purified ALR, DTT oxidation, H2O2 HRP-luminol luminescence. inhibition, % (test concentration not listed). 290,000 compounds, 3.8% hits. AID 485317;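 active = mean and each replicate at 75% or more; inconclusive = only one of the two met; inactive = neither met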;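 also: stock transfer was 7.5 nL into about 7.5 µL; 0% = neutral wells and 100% = wells with inactivated enzyme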
Target sequence (P55789 whole entry, looked up): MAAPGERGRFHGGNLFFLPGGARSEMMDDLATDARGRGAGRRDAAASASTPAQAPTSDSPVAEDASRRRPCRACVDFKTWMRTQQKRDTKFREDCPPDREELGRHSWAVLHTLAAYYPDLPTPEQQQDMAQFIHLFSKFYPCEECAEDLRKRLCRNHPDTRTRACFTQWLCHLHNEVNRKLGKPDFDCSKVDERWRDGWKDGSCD
Vif TR-FRET: inhibitors of Vif binding to APOBEC3G peptide, primary screen, biochemical, TR-FRET, GST-Vif 1-94, biotin-A3G peptide, dose response retest (AID 1117319). TR-FRET GST-Vif / biotin-A3G peptide binding; higher % means a stronger effect; test concentration not given here; strong numbers were not always called active. inhibition, %; hits with a dose series show IC50 in µM. 260,000 compounds, 0.57% hits;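 active = above the screen mean plus three standard deviations and confirmed in dose response; inconclusive = results disagree or hit not tested in dose response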;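 also: Vif residues 1-94 fused to GST binding biotinylated APOBEC3G peptide 110-148; 0% = full assay without inhibitor and 100% = GST in place of GST-Vif; retest series ran down from 100 µM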
Ecoli rRNA inh OD600: second read-out of Ecoli rRNA inh, no call of its own (marks repeat the call); OD600 change, %; measured here: OD600 growth;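 optical density of the mix in the first replicate; 0 = DMSO median and -100 = no signal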
Ecoli rRNA inh RFP: recorded beside Ecoli rRNA inh, whose call it bears; RFP signal change, %; measured here: RFP humanized mutant strains;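 first replicate; 0 = DMSO median and -100 = no signal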
* = called active by the depositor; i = inactive; ? = inconclusive; . = not tested or not shown. Not all compounds are listed. The share of hits here may be higher or lower than overall.

SMILES	Ecoli rRNA inh	Ecoli rRNA inh OD600	Ecoli rRNA inh RFP	MLL AF4-AF9 inh	Ecoli growth	FGF22 binding	HNF4A DNA FP	ALR H2O2 inh	Vif TR-FRET
CCOC(=O)[C@]12CCCC=C1N(Cc1ccc3c(c1)OCO3)C(=O)[C@H](CC(=O)NCCC(C)C)C2	-16	-36	-0.3	0.5	.	i	-4.9	.	.
O=C(NC1CCCCC1)N1CCN(Cc2nc3ccccc3c(=O)[nH]2)CC1	.	.	.	.	0.72	.	-0.5	26	2%
O=[N+]([O-])c1cccnc1SCc1c(F)cccc1Cl	10	0	-2.9	.	0.7	i	-2.6	-4	1%
CN1CCOc2ccc(S(=O)(=O)NCCc3ccc(Cl)cc3)cc21	-32	-59	-12	-5.6	0.65	i	-2.0	9	-1%
CCOc1cc(NC(=S)Nc2cccc(OC)c2)c(OCC)cc1NC(=O)c1ccc(C)cc1	.	.	.	.	0.7	.	-1.1	-15	-1%
CCOc1ccc(C(C)=O)cc1CN1C(=O)NC(C)(C2CC2)C1=O (stereo not drawn)	9	7	-0.4	-0.3	0.63	i	2.9	9	-9%
COc1ccc(-c2nc(-c3ccncc3)no2)cc1	6	1	1.6	-1.2	0.7	i	2.4	-4	-1%
CCOC(=O)N1CCN(C(=O)C2CCN(Cc3nc(-c4ccccc4C)oc3C)CC2)CC1	10	6	3.0	2.1	0.76	.	2.9	12	?
Cc1ccc(N(CC(=O)NC2CCCC2)C(=O)CCC(=O)Nc2nccs2)c(C)c1	4	-8	2.3	1.2	0.67	i	-0.1	.	.
CCS(=O)(=O)N1CCN(c2ccccc2F)CC1	.	.	.	.	0.73	.	-1.0	-6	-2%
Cc1ccc(N/C(N)=N/c2nc(C(F)(F)F)cc(C(F)(F)F)n2)cc1	10	-2	-5.4	7.3	0.72	i	-3.0	-7	-8%
O=C(NC1CCCC1)[C@H]1[C@H](CO)[C@H]2Cn3c(ccc(-c4ccccc4)c3=O)[C@@H]1N2CCc1ccccc1	-5	-19	7.6	2.4	.	i	.	.	.
Nc1nc(Cl)cc(Nc2ccccc2Cl)n1	5	11	-1.7	?	0.67	i	-1.4	.	6%
COc1cc2cc(CCCO)oc(=O)c2cc1OC	-1	6	-10	-1.3	0.68	i	-3.5	-4	.
COc1ccc(-c2nc(N)n(S(=O)(=O)c3ccc(C)cc3)n2)cc1	-9	-8	5.6	-0.5	0.7	i	-0.3	7	?

Compound profiles, as listed above. Screens in order: Ecoli rRNA inh	Ecoli rRNA inh OD600	Ecoli rRNA inh RFP	MLL AF4-AF9 inh	Ecoli growth	FGF22 binding	HNF4A DNA FP	ALR H2O2 inh	Vif TR-FRET
CN1CCOc2ccc(S(=O)(=O)NCCc3ccc(Cl)cc3)cc21 across the screens: -32	-59	-12	-5.6	0.65	i	-2.0	9	-1%
O=C(NC1CCCC1)[C@H]1[C@H](CO)[C@H]2Cn3c(ccc(-c4ccccc4)c3=O)[C@@H]1N2CCc1ccccc1 across the screens: -5	-19	7.6	2.4	.	i	.	.	.
CCOC(=O)N1CCN(C(=O)C2CCN(Cc3nc(-c4ccccc4C)oc3C)CC2)CC1 across the screens: 10	6	3.0	2.1	0.76	.	2.9	12	?

Later entries
SMILES	Ecoli rRNA inh	Ecoli rRNA inh OD600	Ecoli rRNA inh RFP	MLL AF4-AF9 inh	Ecoli growth	FGF22 binding	HNF4A DNA FP	ALR H2O2 inh	Vif TR-FRET
O=C(CSc1nc2ccccc2n1Cc1ccccc1Cl)N/N=C/c1ccccc1C(=O)O	-18	-17	0.1	-8.4	.	i	2.5	.	.
CC(=O)NC1C(=O)N(Cc2ccccc2)c2ccc(Br)cc21 (stereo not drawn)	13	6	-0.6	2.8	0.72	i	4.1	-3	8%
CCc1ccc(OC(=O)/C=C/c2ccco2)cc1	6	2	2.5	-4.4	0.69	i	0.2	20	.
O=C(NCc1ccccc1)C1(C(F)(F)F)C/C(=C/CCO)CCCO1 (stereo not drawn)	8	9	3.8	-6.1	.	i	3.1	-21	.
CCCCNC(=O)CCCN1C(=O)c2cccnc2Sc2ccccc21	9	-1	-0.3	-5.9	0.66	i	0.4	.	1%
CCCCNC(=O)c1nc(-c2cc3ccccc3[nH]2)oc1-c1cccc(C(F)(F)F)c1	13	9	-1.5	2.4	.	i	2.2	.	.
O=C(CN(c1ccccc1Cl)S(=O)(=O)c1ccccc1)NCc1ccccc1	-17	-32	-5.1	-2.5	0.72	i	-0.9	.	.
O=C(Nc1ccc(Cl)cc1F)c1cc(S(=O)(=O)N2CCCCC2)ccc1F	.	.	.	.	0.71	.	-1.1	-2	-18%
C[C@@H]1CCCCO[C@H](CN(C)C(=O)CCC(F)(F)F)[C@H](C)CN([C@H](C)CO)C(=O)c2cc(NS(C)(=O)=O)ccc2O1	-2	6	-2.6	-12	.	i	.	.	.
N#Cc1cccc(C#N)c1Oc1ccc(S(=O)(=O)Nc2ccc(Cl)cc2)cc1	-38*	-15*	-5.0*	-1.8	0.66	i	-2.5	-9	-2%
CCOc1cc(/C=N/NC(=O)CSc2nncn2C)ccc1OC(=O)c1ccc(Cl)cc1	-15	-15	11	3.6	.	i	0.0	17	15%
Cc1ccc([C@H]2C(C(=O)O)=CC[C@@H](c3ccc(Cl)cc3)N2S(=O)(=O)c2ccc(C)cc2)cc1	-11	-44	-10.0	-1.3	0.71	.	2.6	.	-5%
CSCCC(NS(=O)(=O)c1ccccc1F)C(=O)OCc1ccccc1Cl (stereo not drawn)	.	.	.	.	0.68	.	-2.2	0	26%
CCOc1cccc(OCCOCCN(C)Cc2ccccc2)c1	.	.	.	.	0.66	.	1.1	0	3%
Cc1c(C(=O)Nc2ccccc2)sc2ncn(CC(=O)N3CCCCC3)c(=O)c12	-2	-4	-1.9	-3.7	0.7	i	1.6	.	4%
O=C(CSc1nc2ccccc2[nH]1)N/N=C/C=C/c1ccccc1[N+](=O)[O-]	.	.	.	.	.	.	-3.0	-8	18%
CCn1ccc(-c2ccccc2)c(C#N)c1=O	-5	-6	-4.8	-2.6	0.66	i	-4.5	-6	-3%
CC(C1CCN(Cc2nc(C3CC3)no2)CC1)N1CCOCC1 (stereo not drawn)	14	3	-3.4	1.7	0.69	i	-2.6	.	7%
CC(C)c1cn(CC[C@@H]2CC[C@H](NS(=O)(=O)c3ccc(F)cc3)[C@H](CO)O2)nn1	5	6	1.2	-2.1	.	i	.	.	.
C[C@@H]1CN([C@H](C)CO)C(=O)c2cc(NS(=O)(=O)c3cn(C)cn3)ccc2O[C@H]1CN(C)S(=O)(=O)c1ccc(Cl)cc1	-1	-3	0.3	-0.5	.	i	.	.	.
O=C(O)CCN1C(=O)/C(=C\c2ccc(-c3nc4ccccc4s3)o2)SC1=S	.	.	.	.	0.7	.	45*	98*	32%
Cc1ccc(S(=O)(=O)N2CCN(C(=O)COC(=O)CSc3cc(C)ccc3C)CC2)c(C)c1	.	.	.	-0.9	0.67	i	0.7	-4	-4%
Cc1cc(CN(Nc2ccccc2)c2ccccc2)cc(C)n1	-26	-35	-7.8	-2.1	.	i	1.0	.	-3%
COc1cc(/C=C/C(=O)O)cc(S(=O)(=O)NNC(=O)c2ccc3c(c2)OCO3)c1OC	12	10	-0.9	-1.2	0.72	i	-2.7	90*	7%
O=C(C[C@H]1C[C@@H]2c3cc(NC(=O)CC4CC4)ccc3O[C@@H]2[C@@H](CO)O1)NCc1ccccn1	1	3	-2.7	3.4	.	i	.	.	.
CO[C@H]1CN(C)C(=O)c2cc(NS(=O)(=O)c3ccccc3)ccc2OC[C@H](C)NC[C@H]1C	-1	14	0.7	-1.1	.	i	.	.	.
Cc1noc(C)c1S(=O)(=O)Nc1ccc2c(c1)CC(=O)N([C@@H](C)CO)C[C@H](C)[C@H](CN(C)C(=O)Nc1ccccc1)O2	2	11	-2.2	-0.6	.	i	.	.	.
CCSc1nnc(NS(=O)(=O)c2ccc(C)cc2)s1	.	.	.	.	0.72	.	-1.0	-8	-8%
O=C(COc1ccc(C(F)(F)F)cc1[N+](=O)[O-])Nc1cccc(C(F)(F)F)c1	.	.	.	.	0.69	.	-0.9	-12	9%
S=c1[nH]nc(-c2cc(-c3ccsc3)n[nH]2)n1-c1cccc2ccccc12	-51	-75	-13	1.0	0.66	i	0.3	.	3%
COc1cc(/C=C(\NC(C)=O)C(=O)NC(C)(C)C)ccc1OC(C)=O	.	.	.	.	0.62	.	2.6	47	-6%
Cc1c(NS(=O)(=O)c2cc(NC(=O)CCN3CCCC(C)C3)ccc2Cl)c(=O)n(-c2ccccc2)n1C (stereo not drawn)	22	18	-1.2	-0.3	0.7	i	3.4	-9	28%
C=CCN1CN(S(=O)(=O)c2ccc(OC)cc2)c2nc3ccccc3nc21	-3	-8	15	3.3	0.65	i	2.9	68	.
CCc1ccc(NC(=O)CSc2nnc(C3CC3)n2CC2CCCO2)cc1 (stereo not drawn)	-1	4	-1.3	1.0	0.66	i	0.3	.	-2%
CCOc1ccc(CNS(=O)(=O)c2c(C)nc3sccn3c2=O)cc1OC	8	18	0.5	-7.5	0.7	i	-0.4	-3	.
CCOC(=O)C1CCc2nc3ccccc3c(=O)n21 (stereo not drawn)	.	.	.	.	0.65	.	0.9	-6	11%
Cn1c2c(c(=O)n(C)c1=O)CN(Cc1ccc(F)cc1)CN2	.	.	.	.	0.7	.	0.4	-4	1%
Fc1ccccc1/C=C1\CCCC2=C1Nc1nnnn1C2c1ccccc1F (stereo not drawn)	.	.	.	.	0.72	.	0.2	8	15%
Cc1ccc(CCNC(=O)c2nc(CS(=O)(=O)c3ccc(Cl)cc3)no2)cc1	0	-8	0.0	-1.1	0.71	i	-0.1	1	.
O=C(N/N=C/C1CCCCC1)c1cc(Cl)ccc1O	.	.	.	.	.	.	0.4	39	28%
O=C(N/N=C/c1c(O)ccc2ccccc12)Nc1ccccc1	9	4	1.9	1.9	.	i	.	-12	.
CC(NC(=O)c1ccco1)c1cccc2ccccc12 (stereo not drawn)	.	.	.	.	0.69	.	6.6	-25	7%
COc1ccc(-c2cc3nc(C)cc(-c4ccc(OC)cc4)n3n2)cc1	19	11	3.8	-18	0.68	i	3.7	9	.
C[C@H]1CN([C@@H](C)CO)C(=O)Cc2cc(NC(=O)C3CCCCC3)ccc2O[C@@H]1CN(C)C(=O)Nc1cccc2ccccc12	0	2	1.0	-1.1	.	i	.	.	.
Cn1cccc1CN1CCC[C@]2(N[C@H](c3ccccc3)[C@@H]3C(=O)N(Cc4ccccc4)C(=O)[C@@H]32)C1=O	-4	14	-1.8	7.9	.	i	-1.3	.	-6%
CCOC(=O)c1c(C)[nH]c(C)c1S(=O)(=O)N(C)CC(=O)Nc1ccccc1	-1	3	0.9	-8.6	0.69	i	0.6	-2	.
CCOc1cc2[nH]c(=S)n(C3CC3)c(=O)c2cc1OCC	1	8	-2.4	1.3	0.72	i	2.3	1	-10%
CC(=O)N1CCN(C(=O)c2ccc(NS(=O)(=O)c3ccc4[nH]c(=O)[nH]c4c3)cc2)CC1	2	9	0.3	0.9	0.67	i	6.4	1	-2%

Screening data deposited in PubChem by several laboratories.
